NOMO-1 viab: NOMO-1 AML cell viability reduction, primary screen, STK33 inhibitor project, CellTiter-Glo luminescence; NOMO-1 AML viability, 72 h; inhibition, % (test concentration not listed); 37,000 compounds, 7.5% hits; AID 2330, 2010;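 active = most replicates above 80%; inconclusive = exactly half above 80%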;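 note: wells of about 30 µL received 25 nL stock; 0% = median of vehicle wells and 100% = reference inhibitor level; the first replicate is given; inactives centre near 10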
The depositor's hits bear a star; ? = inconclusive. Some of the compounds tested (hit frequency here may not be typical).

SMILES	NOMO-1 viab
C[C@H]1CN([C@@H](C)CO)C(=O)c2cc(NC(=O)CCC(F)(F)F)ccc2O[C@@H]1CN(C)Cc1ccc(C(=O)Nc2ccccc2N)cc1	?
C[C@H]1CN([C@@H](C)CO)C(=O)c2cccc(NC(=O)CCCCCC(=O)Nc3ccccc3N)c2O[C@@H]1CN(C)S(C)(=O)=O	12.9
COc1ccc(S(=O)(=O)Nc2cccc3c2O[C@H](CN(C)S(=O)(=O)c2cccs2)[C@@H](C)CN([C@@H](C)CO)C3=O)cc1	13.0
COc1ccc(N(C(=O)c2cccnc2)S(=O)(=O)c2cccs2)cc1	13.4
COc1ccc(NC(=O)Nc2ccc3c(c2)CC(=O)N([C@H](C)CO)C[C@@H](C)[C@@H](CN(C)C(=O)Nc2cccc4ccccc24)O3)cc1	5.6
C[C@@H]1CN([C@@H](C)CO)C(=O)c2cc(NS(=O)(=O)c3ccc(F)cc3)ccc2O[C@H]1CN(C)S(=O)(=O)c1ccccc1	4.6
COc1ccc(NC(=O)Nc2ccc3c(c2)C(=O)N([C@H](C)CO)C[C@H](C)[C@H](CN(C)C(=O)CCC(F)(F)F)OCCCC[C@@H](C)O3)cc1	23.5
Cn1c(SCC(=O)Nc2cc(C(F)(F)F)ccc2Cl)nnc1-c1cnccn1	-13.4
O=C(/C=C/c1ccccc1)CC(O)CCc1ccccc1 (configuration not stated)	26.4
OC1(/C=C/CN2CCCCC2)CCCCC1	-1.7
Cc1ccc(S(=O)(=O)N(C)C[C@H]2Oc3ccc(NS(=O)(=O)c4cccs4)cc3CC(=O)N([C@@H](C)CO)C[C@@H]2C)cc1	10.3
CNC[C@@H]1Oc2ccc(NC(=O)Nc3ccc(C(F)(F)F)cc3)cc2C(=O)N([C@H](C)CO)C[C@@H]1C	4.6
C[C@H](CO)N1C[C@H](C)[C@@H](CN(C)Cc2ccccc2)Oc2ccc(NC(=O)Cc3cn(C)c4ccccc34)cc2C1=O	8.7
CCOc1ccc(OCC(=O)Nc2cc(C)c(Cl)cc2OC)cc1	16.1
CC1CCc2c(sc3ncnc(SCCOc4ccccc4)c23)C1 (configuration not stated)	-13.2
COc1ccc(NC(=O)c2ccco2)cc1NC(=O)COc1cc(C)c(Cl)c(C)c1	96.0*
C[C@@H]1CN([C@H](C)CO)C(=O)Cc2cc(NC(=O)c3ccncc3)ccc2O[C@@H]1CN(C)C	-1.9
Cc1cc([N+](=O)[O-])ccc1NC(=O)CSc1nnc(-c2ccc(Cl)cc2Cl)n1C	19.3
Nc1ccc(-c2nc3cc(Cl)ccc3o2)c(O)c1	35.1
COc1ccc(S(=O)(=O)N(C)C[C@@H]2Oc3c(NC(=O)Nc4ccc(C(F)(F)F)cc4)cccc3C(=O)N([C@@H](C)CO)C[C@@H]2C)cc1	93.4*
C[C@H]1CN([C@@H](C)CO)C(=O)c2cc(NS(=O)(=O)c3cccs3)ccc2O[C@@H]1CN(C)C	15.1
COC(=O)CN(c1cc(Cl)ccc1OC)S(C)(=O)=O	51.8
Cc1noc(C)c1S(=O)(=O)Nc1ccc2c(c1)C(=O)N([C@@H](C)CO)C[C@H](C)[C@@H](CN(C)Cc1ccc(-c3ccccc3)cc1)O2	34.0
CC(C)NC(=O)N(C)C[C@H]1Oc2c(NC(=O)Nc3ccccc3)cccc2C(=O)N([C@@H](C)CO)C[C@@H]1C	8.6
C[C@H]1CN([C@@H](C)CO)C(=O)Cc2cc(NS(=O)(=O)c3cccs3)ccc2O[C@@H]1CN(C)S(C)(=O)=O	-1.2
CCOC(=O)c1sc2ncn(CC(=O)Nc3ccc(F)c(Cl)c3)c(=O)c2c1C	-20.9
Cc1ccc(S(=O)(=O)NC(C)C(=O)Nc2ccc(Br)cc2)cc1 (configuration not stated)	10.7
COc1cccc(N(CC(=O)Nc2ccc(I)cc2C)S(C)(=O)=O)c1	7.3
C[C@@H]1CN([C@@H](C)CO)C(=O)c2cccc(NS(=O)(=O)c3ccc(Cl)cc3)c2O[C@H]1CN(C)C(=O)Nc1ccc(C(F)(F)F)cc1	7.1
Cc1noc(C)c1S(=O)(=O)N(C)C[C@H]1Oc2ccc(NS(=O)(=O)c3cccs3)cc2CC(=O)N([C@@H](C)CO)C[C@H]1C	3.6
C[C@@H]1CN([C@H](C)CO)C(=O)c2cccc(NC(=O)CCCCCC(=O)Nc3ccccc3N)c2O[C@@H]1CN(C)Cc1ccc(-c2ccccc2)cc1	125.5*
CC(C)NC(=O)N(C)C[C@H]1Oc2ccc(NC(=O)Nc3ccc(C(F)(F)F)cc3)cc2CC(=O)N([C@H](C)CO)C[C@H]1C	?
CNC[C@H]1OCCCC[C@@H](C)Oc2ccc(NC(=O)Nc3ccccc3)cc2C(=O)N([C@H](C)CO)C[C@@H]1C	10.8
C[C@H]1CN([C@@H](C)CO)C(=O)Cc2cc(NS(=O)(=O)c3cn(C)cn3)ccc2O[C@H]1CN(C)S(=O)(=O)c1ccc(Cl)cc1	-14.0
CC(C)NC(=O)Nc1cccc2c1O[C@@H](CN(C)Cc1ccccc1)[C@@H](C)CN([C@H](C)CO)C2=O	10.0
C[C@H](CO)N1C[C@H](C)[C@H](CN(C)C(=O)NC2CCCCC2)Oc2ccc(NS(=O)(=O)c3ccccc3)cc2C1=O	-0.8
C[C@@H]1CN([C@H](C)CO)C(=O)c2cc(NC(=O)Cc3cn(C)c4ccccc34)ccc2O[C@H]1CN(C)S(=O)(=O)c1ccc(Cl)cc1	18.8
C[C@@H]1CCCCO[C@@H](CN(C)S(=O)(=O)c2cn(C)cn2)[C@@H](C)CN([C@H](C)CO)C(=O)c2cc(NC(=O)c3ccccc3)ccc2O1	20.8
Cc1noc(-c2ccccc2OC(=O)c2ccccc2)n1	-4.9
Cc1cc(C(=O)Nc2cccc3c2O[C@@H](CN(C)C(=O)NC(C)C)[C@H](C)CN([C@@H](C)CO)C3=O)n(C)n1	-6.9
C[C@@H]1CN([C@@H](C)CO)C(=O)c2cccc(NC(=O)C3CCOCC3)c2O[C@@H]1CN(C)C	5.1
C[C@H]1[C@H]2OC3=C(C(=O)OC3(C)O)C(=O)[C@]1(C)[C@H]1CCCC[C@]1(O)[C@H]2O (some centres not stated)	11.8
COc1ccc(S(=O)(=O)N(C)C[C@H]2OCCCC[C@@H](C)Oc3ccc(NC(=O)Nc4ccc(F)cc4)cc3C(=O)N([C@H](C)CO)C[C@@H]2C)cc1	8.5
C[C@H]1CN([C@@H](C)CO)C(=O)c2cc(NC(=O)CCN3CCOCC3)ccc2O[C@H]1CN(C)C(=O)Nc1ccccc1	13.3
C[C@@H]1CCCCO[C@@H](CN(C)C(=O)C2CCCCC2)[C@@H](C)CN([C@H](C)CO)C(=O)c2cc(N(C)C)ccc2O1	17.3
Cc1noc(C)c1NC(=O)N(C)C[C@H]1Oc2ccc(NS(=O)(=O)c3ccccc3)cc2CC(=O)N([C@H](C)CO)C[C@H]1C	11.7
C[C@H]1CN([C@@H](C)CO)C(=O)c2cc(NS(=O)(=O)c3cccs3)ccc2O[C@@H]1CN(C)Cc1ccccc1	13.7
Cc1ccc(S(=O)(=O)Nc2ccc3c(c2)C(=O)N([C@@H](C)CO)C[C@@H](C)[C@@H](CN(C)S(=O)(=O)c2ccc(Cl)cc2)O3)cc1	21.0
C[C@@H]1CN([C@@H](C)CO)C(=O)Cc2cc(NS(C)(=O)=O)ccc2O[C@@H]1CN(C)S(=O)(=O)c1cn(C)cn1	25.7
C[C@@H]1CN([C@@H](C)CO)C(=O)c2cc(NC(=O)NC3CCCCC3)ccc2O[C@@H]1CN(C)S(=O)(=O)c1ccc(F)cc1	22.5

Following part
SMILES	NOMO-1 viab
Cc1ccc(S(=O)(=O)Nc2ccc3c(c2)C(=O)N([C@H](C)CO)C[C@H](C)[C@H](CN(C)S(=O)(=O)c2cccs2)OCCCC[C@@H](C)O3)cc1	23.4
O=C(CSc1nc2ccc(NC(=O)c3ccccc3)cc2s1)Nc1cccc([N+](=O)[O-])c1	53.3
CC1=Nc2ccc(Br)cc2C(c2ccccc2)N1CC(=O)NN (configuration not stated)	19.1
FC(F)(F)c1cccc(-c2nc3ccccn3n2)c1	-10.5
COc1ccc(NC(=O)CSc2nc3ccccc3c(=O)n2-c2ccc(C)cc2)cc1Cl	7.8
COc1ccc(NC(=O)Nc2ccc3c(c2)C(=O)N([C@@H](C)CO)C[C@@H](C)[C@@H](CN(C)Cc2ccncc2)O3)cc1	22.1
CC(Oc1cccc(NC(=O)c2ccccc2Cl)c1)C(=O)c1ccc(Cl)cc1 (configuration not stated)	26.6
C=CCn1c(SCC(=O)O)nnc1-c1ccncc1	-16.0
CC(=O)OCC(=O)[C@@]1(O)CCC2C3CC[C@@H]4C[C@H](OC(C)=O)CC[C@]4(C)C3C(=O)C[C@@]21C (some centres not stated)	-23.1
CN1CCN(c2ccccc2NC(=O)COc2ccc([N+](=O)[O-])cc2)CC1	-10.3
CC(C)NC(=O)Nc1cccc2c1O[C@H](CN(C)Cc1ccncc1)[C@@H](C)CN([C@H](C)CO)C2=O	34.7
C[C@H]1CN([C@@H](C)CO)C(=O)c2cccc(NC(=O)C3CCCCC3)c2O[C@@H]1CN(C)S(=O)(=O)c1ccc(F)cc1	31.2
CCOC(=O)c1sc(Sc2ccc(C(F)(F)F)cn2)c2c1CC(C)(C)CC2=O	0.1
CC(C)NC(=O)N(C)C[C@@H]1Oc2ccc(NS(=O)(=O)c3ccc(Cl)cc3)cc2C(=O)N([C@@H](C)CO)C[C@H]1C	-7.9
COC(=O)c1ccc(C)c(NC(=O)COc2ccccc2C)c1	18.1
COc1c2c(nc3ccccc13)OC(C(C)(O)CO)C2 (configuration not stated)	16.3
C[C@H](CO)N1C[C@H](C)[C@@H](CN(C)Cc2ccc(-c3ccccc3)cc2)Oc2ccc(NC(=O)Nc3ccc(F)cc3)cc2C1=O	67.7
C[C@@H]1CN([C@H](C)CO)C(=O)c2cc(NC(=O)CCN3CCOCC3)ccc2O[C@@H]1CN(C)Cc1ccc(Oc2ccccc2)cc1	32.5
CNC[C@@H]1Oc2ccc(NS(=O)(=O)c3ccc(Cl)cc3)cc2CC(=O)N([C@H](C)CO)C[C@H]1C	-2.1
C[C@H]1CN([C@@H](C)CO)C(=O)c2cccc(NC(=O)Nc3ccc(F)cc3)c2O[C@H]1CN(C)CC1CCCCC1	8.5
Cc1nc2c(cnn2-c2ccccc2)c(=O)n1NC(=O)Nc1ccc(Cl)c(Cl)c1	52.8
C[C@@H]1CN([C@@H](C)CO)C(=O)c2cccc(NC(=O)Nc3cccc4ccccc34)c2O[C@H]1CN(C)S(C)(=O)=O	4.5
C[C@@H]1CN([C@H](C)CO)C(=O)c2cc(NC(=O)NC3CCCCC3)ccc2O[C@@H]1CN(C)C	7.3
C[C@@H]1CN([C@H](C)CO)C(=O)c2cc(N(C)C)ccc2O[C@H]1CN(C)S(=O)(=O)c1cn(C)cn1	6.4
COc1ccc(S(=O)(=O)N(CC(=O)O)c2ccc(Cl)cc2)cc1	-9.3
C[C@@H]1CCCCO[C@H](CN(C)C(=O)CCC(F)(F)F)[C@@H](C)CN([C@H](C)CO)C(=O)c2cc(NS(=O)(=O)c3cn(C)cn3)ccc2O1	-4.5
C=C(C(=O)O)[C@H]1C=C2[C@@H](C)[C@@H](O)[C@H](O)C[C@]2(C)CC1	2.7
CC(=O)c1ccc(NC(=O)CCn2cnc3ccccc3c2=O)cc1	6.9
CC(C)NC(=O)N(C)C[C@@H]1Oc2ccc(N(C)C)cc2C(=O)N([C@H](C)CO)C[C@H]1C	13.3
O=C(CSc1nnc(-c2ccncc2)n1-c1ccccc1Cl)Nc1ccc(C(=O)O)cc1	16.3
COc1ccc(S(=O)(=O)Nc2cccc3c2O[C@@H](CN(C)Cc2ccc4c(c2)OCO4)[C@@H](C)CN([C@H](C)CO)C3=O)cc1	28.8
C[C@H](CO)N1C[C@H](C)[C@@H](CN(C)C(=O)Nc2cccc3ccccc23)Oc2ccc(NS(=O)(=O)c3cccs3)cc2C1=O	9.5
COc1ccc(S(=O)(=O)N(C)C[C@@H]2OCCCC[C@@H](C)Oc3ccc(NS(=O)(=O)c4ccc(Cl)cc4)cc3C(=O)N([C@H](C)CO)C[C@@H]2C)cc1	93.9*
CNC[C@@H]1Oc2c(NC(=O)c3cnccn3)cccc2C(=O)N([C@@H](C)CO)C[C@H]1C	1.2
Cc1ccc(-c2noc(CSc3nnnn3-c3ccccc3)n2)cc1	-2.7
C[C@@H]1CCCCO[C@@H](CN(C)S(=O)(=O)c2ccccc2)[C@@H](C)CN([C@H](C)CO)C(=O)c2cc(NS(=O)(=O)c3ccc(F)cc3)ccc2O1	41.8
C[C@@H]1CN([C@@H](C)CO)C(=O)c2cccc(NC(=O)c3ccncc3)c2O[C@@H]1CN(C)Cc1ccccc1	-2.0
COc1ccc(-c2nnc3c4ccccc4c(C)nn23)cc1S(=O)(=O)N1CCCCC1	34.7
Cc1ccc(S(=O)(=O)Nc2ccc3c(c2)C(=O)N([C@H](C)CO)C[C@H](C)[C@H](CN(C)Cc2ccc(C(=O)Nc4ccccc4N)cc2)OCCCC[C@@H](C)O3)cc1	126.7*

Among those listed so far, these have an aryl thioether with sulfur outside any ring:
SMILES	NOMO-1 viab
Cn1c(SCC(=O)Nc2cc(C(F)(F)F)ccc2Cl)nnc1-c1cnccn1	-13.4
CC1CCc2c(sc3ncnc(SCCOc4ccccc4)c23)C1 (configuration not stated)	-13.2
Cc1cc([N+](=O)[O-])ccc1NC(=O)CSc1nnc(-c2ccc(Cl)cc2Cl)n1C	19.3
O=C(CSc1nc2ccc(NC(=O)c3ccccc3)cc2s1)Nc1cccc([N+](=O)[O-])c1	53.3
COc1ccc(NC(=O)CSc2nc3ccccc3c(=O)n2-c2ccc(C)cc2)cc1Cl	7.8
C=CCn1c(SCC(=O)O)nnc1-c1ccncc1	-16.0
CCOC(=O)c1sc(Sc2ccc(C(F)(F)F)cn2)c2c1CC(C)(C)CC2=O	0.1
O=C(CSc1nnc(-c2ccncc2)n1-c1ccccc1Cl)Nc1ccc(C(=O)O)cc1	16.3
Cc1ccc(-c2noc(CSc3nnnn3-c3ccccc3)n2)cc1	-2.7

Screens from PubChem BioAssay.
